Screening data: PubChem, National Center for Advancing Translational Sciences (NCATS)
TRPV1 PAM – HTS Assay for Compounds that Act as Potentiators of the Vanilloid Receptor 1; potentiation, % at 8.33 µM; Transient receptor potential cation channel subfamily V member 1 (Homo sapiens), Q8NER1; TRPV1-expressing cells, Fluo-8 calcium influx, capsaicin EC20 potentiation; host cell line not named in the record; control for the full effect not named in the record; AID 540277, 2011; actives 0.02% (n = 320,000); active means potentiation above 80%; inconclusive means 30% to 80%; inactive means below 30%; note: 0% is about no effect
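Fluo-8 calcium influx in TRPV1-expressing cells, kinetic read (ex 480/em 520 nm). Compound added and read 3 min for agonist activity, followed by capsaicin at EC20 final and 2 min further read for enhancement.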
Sfp inh – qHTS Assay for Inhibitors of Bacillus subtilis Sfp phosphopantetheinyl transferase (PPTase). Biochemical Sfp PPTase activity, qHTS. Potency, µM, for inactives: max response, negative = inhibition, hits mostly inhibitors. actives 3.5% (n = 310,000); active = well fitted inhibition curve with a large enough effect; inconclusive = small, poorly fitted or top-dose-only effect, or another doubt; inactive = no such curve, though single readings can be large or run the other way;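 note: the enzyme is Sfp with the accession as filed and its product quenches rhodamine fluorescence; potency is the fitted concentration of half-maximal effect; 0% = enzyme reaction without inhibitor and -100% = no enzyme wells; top concentration of the series not given in the record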
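Compounds were incubated with enzyme (final 15 nM) for 15 min at room temperature before substrate addition started the reaction. Fluorescence at 525 nm excitation, 598 nm emission was recorded immediately and after 30 minutes.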
CtBP-E1A blk – qHTS Assay for Inhibitors of the CtBP/E1A Interaction | AlphaScreen GST-E1A/His-CtBP binding, 1536-well; stronger effect = lower value; control for the full effect not named in the record | actives 0.49% (n = 340,000) | activity change, % (no concentration beside the values) | AID 651724, 2012; in the data active means activity change below about -65%; inconclusive means about -30% to -65%; inactive means above about -30%; note: % is set by controls: 0 for no effect and ±100 for the full control effect; compound concentration not given in the record
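In 5 uL wells, 23 nL compound meets equimolar GST-E1A and His-CtBP (5X stock 125 nM each) for 2 h, 37 °C. Beads (5X, 50 ug/mL) then 1 h, 37 °C, dark.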
PINK1 modulator – A Quantitative High throughput Screen to Identify Chemical Modulators of PINK1 Expression; PINK1 immunofluorescence, high-content cytometry, 24 h; Potency, µM (titrated, usually from 76.6 µM), inactives show at the top dose activation (PINK1 increase), usual class: activators; actives 0.2% (n = 410,000); AID 624263, 2012; active = well fitted activation curve with a large enough effect; inconclusive = small, poorly fitted or top-dose-only effect; inactive = flat fitted curve, though single readings scatter; cell line not stated here;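 note: potency is the fitted concentration of half-maximal effect; % of control where 0% means no effect; nearly all actives have a fitted effect of over 65% in size; a mitochondrial uncoupler was the plate control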
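Stable cell line, 250 cells/well, 12 h attachment; compounds pinned at 5 concentrations, 24 h; CCCP control. Fixed with nuclear dye, primary antibodies 12 h at 10 degrees C, secondary plus cell stain; laser-scanning cytometer read.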
D2 potentiator – Beta-Arrestin HTS for Positive Allosteric Modulators of the Human D2 Dopamine Receptor: Potentiators; D(2) dopamine receptor (Homo sapiens), P14416; DiscoveRx D2 beta-arrestin cells, luminescence, 90 min; 100% = 57 uM dopamine signal; potentiation, % (test concentration not listed); actives 0.23% (n = 360,000); active = potentiation of 50% or more; inconclusive = 30% to 50%; inactive = 30% or less;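 note: compound concentration not given in the record; tested on top of an EC20 dose of dopamine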
Target sequence (P14416 whole entry, looked up): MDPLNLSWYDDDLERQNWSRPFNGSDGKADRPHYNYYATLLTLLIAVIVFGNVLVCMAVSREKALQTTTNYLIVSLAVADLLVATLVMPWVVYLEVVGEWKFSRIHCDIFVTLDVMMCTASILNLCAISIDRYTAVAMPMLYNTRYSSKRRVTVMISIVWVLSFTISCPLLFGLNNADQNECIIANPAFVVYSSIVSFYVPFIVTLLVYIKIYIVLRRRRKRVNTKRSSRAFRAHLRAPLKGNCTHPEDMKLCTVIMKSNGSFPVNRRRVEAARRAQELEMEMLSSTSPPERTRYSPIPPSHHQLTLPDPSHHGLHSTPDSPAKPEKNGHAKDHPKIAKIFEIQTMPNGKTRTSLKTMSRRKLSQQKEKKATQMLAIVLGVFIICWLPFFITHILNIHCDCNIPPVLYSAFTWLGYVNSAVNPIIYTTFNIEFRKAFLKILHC
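PathHunter beta-arrestin assay in DiscoveRx D2 cells. Compounds were added with an EC20 of dopamine (50 nM final) for 90 min at 37 deg C. Luminescence was read 1 h after detection reagent, with 57 uM dopamine as the EC100 control.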
D2 ag – Beta-Arrestin HTS for Positive Allosteric Modulators of the Human D2 Dopamine Receptor: Agonists; D(2) dopamine receptor (Homo sapiens), P14416; activation, % (no concentration beside the values); actives 0.084% (n = 360,000); DiscoveRx PathHunter D2 beta-arrestin, luminescence, 90 min; 100% = 57 uM dopamine signal; in the data active = activation above about 40%; inconclusive = about 15% to 40%; inactive = below about 15%; note: compound concentration not given in the record; the text of the record calls up to 30% inactive
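Agonist mode: compounds alone added to overnight-plated D2 PathHunter cells for 90 min at 37 C, with 57 uM final dopamine (EC100) defining full response. Beta-arrestin recruitment detected by chemiluminescent reagent, read after 1 h at ambient temperature.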
Six1-Eya2 inh – qHTS Assay for Inhibitors of the Six1/Eya2 Interaction; Homeobox protein SIX1 (Homo sapiens) + Protein phosphatase EYA2 (Homo sapiens), …; AlphaScreen GST-Six1/His-Eya2 binding, biochemical; stronger effect = lower value; control for the full effect not named in the record; activity change, % (no concentration beside the values); actives 0.56% (n = 360,000); AID 651725, 2012; in the data active = activity change below about -65%; inconclusive = about -30% to -65%; inactive = above about -30%; note: % is set by controls: 0 for no effect and ±100 for the full control effect; compound concentration not given in the record
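AlphaScreen with GST-Six1 and His-Eya2 (5X mix: 250 nM and 500 nM), glutathione donor and nickel acceptor beads; buffer 50 mM Tris pH 8.0, 300 mM NaCl, 1 mM TCEP; 1 h at 37 C in the dark.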
* marks the source's active call; other numbers are inactive results; ? = inconclusive; . = no result given; & = joins results of further samples; [ ] = remark or other dose.

SMILES	Six1-Eya2 inh	TRPV1 PAM	Sfp inh	PINK1 modulator	D2 ag	CtBP-E1A blk	D2 potentiator
c1cnc(NCCNc2ncccn2)nc1	4.5	-4.4	1.8%	-0.2%[38.3 µM]	-2.7	2.6	-0.2
COc1cccc(NC(=O)N(C)C[C@H]2OCc3cnnn3CCCC(=O)N([C@H](C)CO)C[C@@H]2C)c1	-16.6	.	.	2.7%	-2.0	-3.1	2.5
COC(=O)c1cccc(NC(=O)c2cc3sccc3n2C)c1	-13.8	-2.9	-2.0%	-3.7%[38.3 µM]	-0.1	-22.6	-9.0
CN1CCN(S(=O)(=O)c2ccc(N3CCN(S(=O)(=O)/C=C/c4ccccc4)CC3)nc2)CC1	-0.9	1.2	1.5%	-2.9%	2.0	-2.7	-4.7
O=C(Nc1nnc(SCC(=O)N2CCCc3ccccc32)s1)c1cccc2ccccc12	1.8	17.2	0.8%	0.0%	0.7	2.5	-5.1
CCc1ccccc1Nc1nc(N)nc(CSCC(=O)c2cc(C)n(C)c2C)n1	-13.5	-7.7	-19.3%	2.0%	-2.6	-8.1	-1.5
Cc1ccc(NC(=O)CN(c2ccccc2)S(=O)(=O)N(C)C)cc1C	0.1	-4.4	-3.1%	-2.5%	-1.8	6.7	-20.3
COc1ccccc1C(=O)Nc1c[nH]c(=O)[nH]c1=O	-1.5	23.6	2.3%	1.1%	-0.8	.	-0.2
CCCCOc1ccc(C(=O)C(CN2CCOCC2)c2ccccc2)cc1 (stereo not given)	-7.8	-11.8	9.8%	-1.7%	-4.1	-5.1	1.9
Cn1c(COc2ccc3ccccc3c2)nnc1SCC(=O)OC1CCCCC1	-15.3	7.3	9.3%	11.7%	-2.8	-9.5	-16.1
CC(C)(C)C1CCC2(CC1)NC(CO)(CO)CO2 (stereo not given)	0.8	-4.9	12.9%	0.0%	-3.8	-1.9	-8.2
CCc1nc2ccc(C(=O)NCc3ccccc3OC)cn2c1N(C=O)CCC(C)C	-0.6	.	.	0.4%	5.0	7.7	5.3
O=C(CCNC(=O)c1ccccc1)NCc1ccccc1F	-6.2	-5.5	.	2.4%	-4.6	.	-8.1
CC(OC(=O)CN1C(=O)C2CC=CCC2C1=O)C(=O)Nc1ccc(F)cc1Cl (stereo not given)	11.7	-3.5	9.3%	-1.0%	-0.1	0.4	-13.2
O=c1onc(-c2c(F)cccc2F)n1-c1ccccc1Cl	7.0	-40.2	18.5%	1.6%	58.1*	4.1	28.8
CSc1nc(C)cc(C)c1S(=O)(=O)c1ccccc1C	16.0	22.6	2.6%	2.9%	1.1	13.6	-6.6
COC(=O)c1nn(-c2cccc(C)c2)c2nnc(Cc3ccc(C)cc3)c(=O)n12	-17.6	-7.7	-2.1%	0.8%	1.2	-1.1	-1.3
COc1ccc(-c2noc(CCC(=O)NCCN3CCN(c4ccccc4F)CC3)n2)cc1	-9.1	-1.1	18.6%	-0.9%	-0.6	-5.2	-31.6
COc1cccc(NC(=O)NC2CCN(CC(=O)Nc3ccccc3[N+](=O)[O-])CC2)c1	-6.8	9.1	0.0%	1.8%	4.4	-23.7	1.9
CC(C)NC(=O)c1ccccc1NC(=O)CCc1ccccc1	2.6	1.1	27.4%	1.8%	-4.7	0.0	-5.2
O=C1c2ccccc2C(O)N1Cc1ccc2c(c1)OCO2 (stereo not given)	5.7	2.1	7.3%	0.2%	-0.5	7.4	-3.4
COc1cc(NC(=O)C2CCC(CNc3c(N4CCC(C)CC4)c(=O)c3=O)CC2)cc(OC)c1 (stereo not given)	-27.5&-23.4	-8.3	10.2%	0.5%&3.1%	-1.9&3.5	-22.2&-18.1	-6.6&-3.1
COc1cccc(-c2cccc(NC(=O)C3CCN(CCCn4cccn4)CC3)c2)c1	-5.1	.	.	-0.2%	-2.4	1.1	-41.3
CCc1ccc(NC(=O)c2cc(CC(C)C)on2)cc1	12.4	-29.3	13.6%	1.4%	-2.1	10.2	-5.0
CCN1C(=O)c2ccccc2S(=O)c2ccc(C(=O)NCc3ccccn3)cc21 (stereo not given)	-1.9	-1.3	-9.3%	-0.1%	-1.6	-0.2	-10.6

Compound profiles, from the list above:
COc1cccc(NC(=O)NC2CCN(CC(=O)Nc3ccccc3[N+](=O)[O-])CC2)c1 is listed with Six1-Eya2 inh = -6.8; TRPV1 PAM = 9.1; Sfp inh = 0.0%; PINK1 modulator = 1.8%; D2 ag = 4.4; CtBP-E1A blk = -23.7; D2 potentiator = 1.9
CCc1ccc(NC(=O)c2cc(CC(C)C)on2)cc1 is listed with Six1-Eya2 inh = 12.4; TRPV1 PAM = -29.3; Sfp inh = 13.6%; PINK1 modulator = 1.4%; D2 ag = -2.1; CtBP-E1A blk = 10.2; D2 potentiator = -5.0

More structures
SMILES	Six1-Eya2 inh	TRPV1 PAM	Sfp inh	PINK1 modulator	D2 ag	CtBP-E1A blk	D2 potentiator
C=C(C)Cn1c(C2CC(=O)N(c3ccccc3F)C2)nc2ccccc21 (stereo not given)	-3.6	17.4	0.4%	-0.6%	-1.4	-0.3	-1.8
CC(C)(C)C1C=C(Sc2ccccc2)C(=O)O1 (stereo not given)	18.1	-35.3	-1.4%	15.8µM*	-1.9	8.3	13.7
O=C(NNC(=O)c1sccc1-n1cccc1)c1ccccc1	0.0	-5.4	11.7%	0.6%	-1.9	-3.2	13.5
CCC(O)(CC)C(=O)N=Nc1c(O)[nH]c2ccccc12	0.1	6.5	-9.0%	0.5%	4.7	7.9	-3.3
Cn1c(C(F)(F)F)nc2c(=O)oc3ccccc3c21	0.4	.	-1.3%	-0.4%	2.8	0.7	-8.6
S=C(NCc1ccco1)NCc1ccccc1Cl	-11.0	-20.0	8.6%	0.0%	-2.1	-9.6	-12.2
Cc1nc2sc(C(c3ccco3)N3CCN(c4ccccc4F)CC3)c(O)n2n1 (stereo not given)	-6.5	-1.3	-9.1%	-3.5%[38.3 µM]	-0.7	11.0	-10.1
COc1ccc(C2C([N+](=O)[O-])=C(C)N(C)C(=O)N2C)cc1OC (stereo not given)	-4.6	18.8	11.9%	4.0%	-1.3	5.0	-3.1
O=S(=O)(NCCCc1ccccc1)c1ccc(Cl)cc1	9.6	24.4	-1.9%	7.2%	0.9	15.9	7.2
CN(C(=O)c1ccno1)c1nnc(-c2cccnc2)s1	-0.3	-3.4	-12.2%	-0.3%	-2.9	-2.0	21.0
O=C(CSc1ncn[nH]1)N/N=C/c1ccc(F)cc1	-12.2	.	.	0.3%	-8.7	-28.5	-6.9
CCN(CC(=O)Nc1c(F)cccc1F)C(=O)Cc1csc(-c2ccc(OC)c(OC)c2)n1	-2.5	10.9	.	0.1%	-1.6	-17.7	-23.1
COc1ccc(Br)c(C(=O)Nc2cccc(S(=O)(=O)N3CCOCC3)c2)c1	-0.2	-19.7	.	2.0%	3.8	.	-1.4
CCOC(=O)C1=C(C)N(c2ccccc2)C(=O)/C1=C\c1cccs1	-0.8	-9.8	15.1%	3.9%	-2.9	-0.1	-26.9
Cc1c(C#N)c(NC(=O)CCl)n(Cc2ccc(F)cc2)c1C	2.4	11.3	-16.6%	-0.6%	-2.5	-5.0	-10.8
COc1cc2c(cc1NC(=O)c1cncc(Br)c1)oc1ccccc12	8.8	6.8	2.6%	9.0%	-0.5	6.9	-3.1
COc1cccc(C(=O)OCC(=O)NC2CCCc3ccccc32)c1O (stereo not given)	4.7	2.9	.	-1.3%	0.7	0.0	-8.8
COc1ccc(C(=O)CC(=O)C(=O)NCCc2cccc(C)c2)cc1	-1.2	-0.5	11.9%	0.7%	-6.7	1.6	-12.7
Cc1ccc(-c2csc(C3=C(O)CN(NC(=O)c4ccco4)C3=N)n2)cc1	3.7	-9.7	21.2%	-0.6%	-1.2	6.7	-1.5
CCC(Oc1ccc(F)cc1)C(=O)N1CCCCCCC1 (stereo not given)	4.9	-17.0	18.3%	-0.6%	-2.5	.	-11.6
O=C(Oc1ccccc1N1CCOCC1)c1sccc1Br	3.8	-16.2	-1.9%	4.8%	3.0	1.9	-6.6
CS(=O)(=O)N(CCc1ccccc1)CC(=O)N1CCN(c2ccccc2F)CC1	0.9	-5.3	-5.9%	1.5%	-1.8	3.1	-33.3
COc1cc(NC(=S)NC(=O)c2ccc(F)cc2)ccc1NC(=O)c1ccco1	-4.3	10.2	3.0%	-1.1%	-1.6	-7.3	-17.5
COc1ccc(C)cc1NC(=O)c1sc2ncn(CC(=O)N3CCCCC3)c(=O)c2c1C	1.3	2.8	20.0%	6.0%	-3.0	11.8	0.0
Cc1nc(Nc2cccc(F)c2)c2oc3ccccc3c2n1	0.1	16.7	-7.9%	6.2%	-1.1	4.3	-7.3
CCOCC(O)CS(=O)Cc1ccccc1 (stereo not given)	-1.2	-21.6	10.8%	-1.9%[38.3 µM]	-2.6	-14.0	-12.4
CN(C)S(=O)(=O)c1cccc(NC(=O)C2Cc3ccccc3CN2C(=O)c2ccco2)c1 (stereo not given)	-7.2	-3.9	0.6%	0.4%	-1.5	-3.1	-10.7
CN(C)c1ccc(NC(=O)CSc2nc3ccccc3c(=O)n2C2CCCCC2)cc1	?	0.2	21.3%	1.8%	4.6	?	9.8
CCc1nnc(NC(=O)CCS(=O)(=O)c2ccc(C)cc2)s1	6.6	27.3	.	0.0%	-2.3	-2.0	-13.4
O=C(N/N=C/c1c(O)ccc2ccccc12)c1ccc(CO)nc1	-86.7*	-6.6	13.1%	?	0.8	-92.0*	-3.1

Three compounds out of the list above, sorted by their value in D2 ag, lowest first.
SMILES	Six1-Eya2 inh	Sfp inh	PINK1 modulator	D2 ag	CtBP-E1A blk	D2 potentiator
CCOCC(O)CS(=O)Cc1ccccc1 (stereo not given)	-1.2	10.8%	-1.9%[38.3 µM]	-2.6	-14.0	-12.4
CN(C)S(=O)(=O)c1cccc(NC(=O)C2Cc3ccccc3CN2C(=O)c2ccco2)c1 (stereo not given)	-7.2	0.6%	0.4%	-1.5	-3.1	-10.7
O=C(N/N=C/c1c(O)ccc2ccccc12)c1ccc(CO)nc1	-86.7*	13.1%	?	0.8	-92.0*	-3.1
